# Bioassay records from PubChem.
# FGF22 binding = binders of recombinant human FGF22 by thermal shift. calls only at 9.99 µM. SYPRO orange fluorescence; percent of sucrose octasulfate shift, DMSO zero. AID 651658. Q9HCT0. hit rate 1.5% among 340,000;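 active means melting point raised past a set limit in the mean and every replicate; three in four hits are not shown here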
# Target sequence (Q9HCT0 whole entry, looked up): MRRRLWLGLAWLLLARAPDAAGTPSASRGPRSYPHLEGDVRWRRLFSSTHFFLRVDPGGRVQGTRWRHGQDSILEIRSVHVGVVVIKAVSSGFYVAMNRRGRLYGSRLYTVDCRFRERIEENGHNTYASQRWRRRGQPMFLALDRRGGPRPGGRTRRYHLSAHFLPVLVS
# LANA-H2B inh = blocks KSHV LANA binding to histone H2A/H2B. Q9QR71. cell-free LANA-H2A/H2B peptide, fluorescence polarization. inhibition, % (test concentration not listed). hit rate 0.6% among 320,000. AID 2629; in the data active means inhibition mostly above about 10%, no sharp cut-off; inactive means mostly below about 6.7%;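 further: stock transfer was 7.5 nL into about 10 µL; 0% = median of vehicle wells and 100% = median of positive control wells; one replicate is shown; the record names a cut of 25% in any replicate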
# UCH37 DUB inh = blocks the human deubiquitinase UCH37; inhibition, % (test concentration not listed); purified proteasome/UCH37, Ub-AMC cleavage fluorescence; Q9Y5K5; AID 588478; hit rate 0.33% among 330,000;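 active means mean of two replicates above 20%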;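 further: 0% = compound-free wells with enzyme and 100% = wells lacking proteasome; stock transfer was 100 nL into about 20 µL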
# Target sequence (Q9Y5K5 whole entry, looked up): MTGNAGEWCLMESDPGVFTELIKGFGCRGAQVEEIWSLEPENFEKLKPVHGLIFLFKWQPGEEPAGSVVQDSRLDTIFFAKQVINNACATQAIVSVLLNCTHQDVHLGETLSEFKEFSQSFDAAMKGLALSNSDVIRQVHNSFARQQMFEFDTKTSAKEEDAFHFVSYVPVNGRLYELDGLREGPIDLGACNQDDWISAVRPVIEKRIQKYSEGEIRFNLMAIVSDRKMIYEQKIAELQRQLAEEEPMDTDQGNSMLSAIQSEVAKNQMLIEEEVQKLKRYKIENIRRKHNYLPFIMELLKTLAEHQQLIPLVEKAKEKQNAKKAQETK
#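 assay system = human UCH37 enzyme supplied as purified proteasome complex | amount = proteasome at 0.15 nM in the dispensed enzyme solution | schedule = 30 min compound-proteasome preincubation then 25 min substrate reaction, room temperature | measured by = fluorescence, ex 355 nm, em 460 nm | benchmarks = no-proteasome wells (full inhibition) and compound-free wells (no inhibition)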
# HNF4A DNA FP = change in binding of human HNF4 alpha to DNA | HNF4a-FITC DNA binding, fluorescence polarization, 1 h | activity change, % at 10 µM | P41235 | hit rate 0.3% among 360,000; in the data active means activity change above about 30%, passing the limit was not always enough;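 further: controls were the assay level and a saturating level of protein; the project sought stronger binding though the title names inhibitors; some compounds called inactive have numbers as strong as hits; positive values seem to mean higher polarization but the record does not say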
# Target sequence (P41235 whole entry, looked up): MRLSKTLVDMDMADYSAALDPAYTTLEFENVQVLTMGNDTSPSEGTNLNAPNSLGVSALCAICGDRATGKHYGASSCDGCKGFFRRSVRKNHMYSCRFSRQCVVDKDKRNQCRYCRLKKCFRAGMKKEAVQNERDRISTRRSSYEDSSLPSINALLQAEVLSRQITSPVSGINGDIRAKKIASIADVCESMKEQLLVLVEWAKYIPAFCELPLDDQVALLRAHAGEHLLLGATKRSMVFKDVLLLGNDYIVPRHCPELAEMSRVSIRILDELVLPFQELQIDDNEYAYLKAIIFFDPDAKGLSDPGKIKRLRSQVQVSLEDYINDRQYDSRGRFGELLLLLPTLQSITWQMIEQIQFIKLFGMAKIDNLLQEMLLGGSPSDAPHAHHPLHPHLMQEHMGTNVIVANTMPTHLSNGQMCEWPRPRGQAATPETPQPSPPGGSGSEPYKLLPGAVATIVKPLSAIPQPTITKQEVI
# Beta2AR agonist = agonists of human beta-2 adrenergic receptor inducing internalization | Am2.2-beta2AR cells, FAP receptor internalization, flow cytometry; reference of the scale not given here | response, % (concentration not given with the values) | hit rate 0.43% among 340,000 | P07550;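 active means response above a set limit, near 3 SD of response in nonfluorescent compounds, cut at about 42% in these data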;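 further: stock transfer was 100 nL into about 11 µL; a reference agonist was the positive control; negative values mostly stem from fluorescent compounds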
# ALR inh = human ALR oxidase inhibition via reduced H2O2; P55789; purified ALR, DTT oxidation, H2O2 HRP-luminol luminescence; inhibition, % (test concentration not listed); hit rate 3.8% among 290,000; AID 485317;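 active means mean and each replicate at 75% or more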;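 further: stock transfer was 7.5 nL into about 7.5 µL; 0% = neutral wells and 100% = wells with inactivated enzyme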
# E coli growth = inhibitors of Escherichia coli growth; AID 1053175; OD600 absorbance (concentration not given with the values); hit rate 0.21% among 330,000; OD600, 23 h; hits give low values;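 active means OD600 absorbance below the run mean of sample wells minus 3.6 SD, in any replicate, cut at about 0.56 in these data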;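 further: stock transfer was 300 nL into about 60 µL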
# * hit, by the source's call; i = inactive; x = not tested or not shown. This is a subset; count on the stated rates, not on these rows.
Structure,FGF22 binding,LANA-H2B inh,UCH37 DUB inh,HNF4A DNA FP,Beta2AR agonist,ALR inh,E coli growth
CN(Cc1ccccc1)C(=O)c1nc2ccccn2c1CNCCn1cccn1,x,-3.9,-0.2,1.2,4,-12,0.71
COC(=O)c1c(C)c2c(C)cc3ccccn3c-2c1C(=O)OC,x,0.3,3.4,-28,5,1,0.73
O=C(Nc1ccc(S(=O)(=O)Nc2ncccn2)cc1)c1cccc(Br)c1,i,1.5,-1.4,-1.0,-2,1,0.71
Cn1c(=O)c2c(=O)cc(N)[nH]c2n(C)c1=O,i,-2.4,-0.5,-13,-7,-16,0.67
COc1ccc(CCNC(=O)CSc2cn(Cc3cccc(C)c3)c3ccccc23)cc1OC,i,1.3,1.9,-3.5,17,23,0.76
O=C(C1CCCN(Cc2nc(-c3ccc(Cl)cc3)no2)C1)N1CCOCC1 (centres undefined),i,3.8,-3.1,-3.7,-1,7,0.65
COc1ccc(-c2nn3c(-c4ccccn4)nnc3s2)cc1OC,x,0.7,-20,4.4,-8,66,0.71
CS(=O)(=O)c1ccc(S(=O)CC(=O)Oc2ccc(Cl)cc2)c([N+](=O)[O-])c1 (centres undefined),x,3.5,5.7,x,x,43,0.64
O=C(CCCCCNC(=O)N1CCn2c1nc1ccccc12)N[C@H](C(=O)O)c1ccccc1,i,-4.1,0.9,1.6,-3,-30,0.75
CCOC(=O)c1cccc(NC(=O)CSc2nnc(C3CCCCC3)n2C)c1,x,-0.7,2.9,0.8,-1,x,0.69
O=C(CC1CCCC1)Nc1cccc(Br)c1,i,4.1,-1.9,-0.6,1,-1,0.64
C=CCOc1ccc2oc(=O)cc(C)c2c1,x,0.0,-51,-2.2,-16,-2,0.68
c1ccc(OCCOCCN2CCN(C(c3ccccc3)c3ccccc3)CC2)cc1,i,x,2.2,2.3,12,x,0.57
CCOC(=O)c1oc2ccc(/C=N/O)c(Cl)c2c1C,i,0.8,x,-0.9,-1,-2,x
Cc1cccn2c(=O)c(C=O)c(N3CCCCC3)nc12,i,0.0,8.6,1.4,-15,-2,0.69
O=C(N/N=C\c1ccc2c(c1)OCO2)c1ccc(Cn2cc(Br)c([N+](=O)[O-])n2)o1,i,3.2,x,-0.4,-2,-2,x
Cc1cccc(CCNC(=O)C2CCC(=O)N(Cc3ccc(Cl)cc3)C2)n1 (centres undefined),i,-1.2,-0.8,-1.4,10,-1,0.68
CN1C=CC=C/C1=C1/N=C(c2ccccc2)OC1=O,i,-5.7,7.1,2.4,2,15,0.65
CCCc1nn(C)c(C(=O)Nc2ccc(CC)cc2)c1Cl,x,x,4.0,2.4,-5,x,0.69
Cc1ccccc1-n1c(N)cc(=O)[nH]c1=S,x,-4.7,1.2,-2.4,-2,-5,0.67

# In the list so far, these contain an aryl thioether with sulfur outside any ring.
Structure,FGF22 binding,LANA-H2B inh,UCH37 DUB inh,HNF4A DNA FP,Beta2AR agonist,ALR inh,E coli growth
COc1ccc(CCNC(=O)CSc2cn(Cc3cccc(C)c3)c3ccccc23)cc1OC,i,1.3,1.9,-3.5,17,23,0.76
CCOC(=O)c1cccc(NC(=O)CSc2nnc(C3CCCCC3)n2C)c1,x,-0.7,2.9,0.8,-1,x,0.69

# Later entries.
Structure,FGF22 binding,LANA-H2B inh,UCH37 DUB inh,HNF4A DNA FP,Beta2AR agonist,ALR inh,E coli growth
O=CN1CCN(CC(O)Cn2c3ccccc3c3ccccc32)CC1 (centres undefined),i,2.6,3.3,-1.1,-5,-26,0.66
O=C(c1ccc(NC2=NC3CS(=O)(=O)CC3S2)cc1)N1CCc2ccccc2C1 (centres undefined),i,-0.1,3.7,3.6,6,-6,0.73
COc1cc(/C=C/C(=O)OCC(=O)N2CCN(S(=O)(=O)c3ccc(C)cc3C)CC2)ccc1OC(F)F,i,x,-3.6,1.1,0,x,0.72
CCOC(=O)CSc1nn(C)c(=S)s1,i,1.7,8.9,2.9,13,16,0.75
Oc1ccc(CCc2n[nH]c(=S)n2-c2ccc(F)cc2)cc1,i,-0.4,-0.3,1.2,-2,81*,0.64
CNC(=O)c1ccc(OC2CSC2)cc1,x,-0.3,0.0,1.3,-5,-16,0.69
O=C(COC(=O)c1ccccc1NC(=O)c1ccco1)NCC1CCCCC1,x,-0.3,-36,-3.3,-10,1,0.68
COc1ccc(CN(C(=O)c2cc(=O)c3ccccc3o2)C2CCS(=O)(=O)C2)cc1OC (centres undefined),i,x,1.8,2.1,-2,-66,0.71
COc1ccc(C(=O)O/N=C(/c2ccccc2)c2ccncc2)cc1OC,i,0.5,x,-0.3,-7,1,x
O=C(CCC1CCCC1)Nc1ccc([N+](=O)[O-])cn1,x,-0.7,3.9,-1.1,-3,x,0.7
CC(C)CC1(C)NC(=O)N(CC(=O)Nc2cccc(S(=O)(=O)N(C)c3ccccc3)c2)C1=O (centres undefined),i,-0.2,5.2,-2.7,0,-21,0.66
CN(C(=O)COC(=O)c1cc(=O)[nH]c2ccccc12)c1c(N)n(Cc2ccccc2)c(=O)[nH]c1=O,i,3.4,-48,3.0,-12,-5,0.63
CCOc1cc(C)c(C(C)C)cc1S(=O)(=O)NCc1ccccn1,x,8.8,1.4,-1.6,10,1,0.67
O=C(NCC(c1ccco1)N1CCc2ccccc2C1)c1ccc(Cl)cc1 (centres undefined),i,-4.8,3.5,-3.0,-6,0,0.65
O=C(NCCSc1c[nH]c2ccccc12)c1ccco1,i,2.6,-0.5,1.4,-204,73,0.71
CC(=O)c1ccc2c3c(cc(C)c2c1)CCCC3,i,x,-25,3.2,4,x,0.67
COc1ccc(C(=S)N2CCCCC2)cc1Br,i,3.6,5.1,3.5,-12,16,0.67
COc1ccccc1CNC(=O)c1oc2ccc(S(=O)(=O)N3CCCC3)cc2c1C,x,-3.4,4.2,-2.7,17,20,0.75
Cn1ccs/c1=N\C(=O)Nc1cccc(C(F)(F)F)c1,i,-1.6,x,-2.2,-8,1,x
CC(=O)C1=C(O)C(=O)N(Cc2cccnc2)C1c1ccccc1 (centres undefined),x,-4.9,4.1,1.0,-2,1,0.67
CCN(CC)c1ccc(S(=O)(=O)N2CCOCC2)cc1NC(=O)Nc1ccccc1,i,-8.1,4.3,-0.2,10,-4,0.68
CN(C)S(=O)(=O)c1ccc(NC(=O)c2ccc3ncsc3c2)cc1,x,0.3,1.7,x,x,-8,0.58
O=C(COC(=O)/C=C/c1ccc(Cl)c(Cl)c1)NC1CC1,i,1.0,2.8,2.2,0,-3,0.72
O=C(CCn1ccc2cc(S(=O)(=O)N3CCCC3)ccc21)NCc1cccc(F)c1,i,-1.0,1.0,-0.8,6,2,0.62
CCCCCC1=CCC/C1=N\NC(=O)c1ccc2c(c1)OCO2,i,-4.1,x,-2.9,-1,-2,x
COc1ccc(N(CC(=O)NC2CCCCC2C)S(=O)(=O)c2c(C)nn(C)c2C)cc1 (centres undefined),i,0.8,2.8,-1.3,2,-5,0.79
CSCCCNC(=S)N1CCN(S(=O)(=O)c2cccc(C(F)(F)F)c2)CC1,i,-2.3,-0.3,-2.0,-2,-12,0.63
O=C(Cc1cccs1)N1CCN(S(=O)(=O)c2cccc([N+](=O)[O-])c2)CC1,i,11,2.7,1.1,0,-10,0.71
COc1cc(C(=O)NNC(=O)c2n[nH]c3ccccc23)cc(OC)c1OC,i,4.5,3.2,-0.7,-2,3,0.69
Cc1nc2ccc(C(=O)N3CCCC(CO)(Cc4ccc(F)cc4F)C3)cc2nc1C (centres undefined),i,-3.3,3.5,2.4,-5,4,0.72
CC(C)Nc1ncnc2ccc(Br)cc12,i,4.2,3.5,2.9,-6,-4,0.59
CNC(=O)NC(=O)C(c1ccccc1)N(C)CC1COc2ccccc2O1 (centres undefined),i,2.4,0.6,4.8,-7,x,0.66
O=C(COC(=O)CC1CC2CCC1C2)Nc1ccc(F)cc1 (centres undefined),i,2.4,5.3,3.4,5,0,0.69
CC(C)CN(C(=O)CN(C)C(=O)Cc1ccc(Cl)cc1)c1c(N)n(CC(C)C)c(=O)[nH]c1=O,i,-4.9,2.5,2.0,-5,-4,0.65
Cc1ccc(S(=O)(=O)NC(=NC(C)C(=O)O)c2ccccc2)cc1 (centres undefined),x,-0.6,1.4,-1.6,-6,-5,0.7
O=C(Cc1cccc2ccccc12)NCCOc1ccccc1F,i,-3.5,2.5,-0.9,2,x,0.68
Cc1nnc(SCC(=O)Nc2ccc(Br)cn2)[nH]c1=O,x,0.8,3.1,-2.7,2,99*,0.66
O=C(O)c1c2c(nc3ccccc13)/C(=C/c1ccc(OC(F)F)cc1)CCC2,i,-4.9,-38,-1.5,0,-4,0.7
CC(C)(C)c1ccc(/C=C2\Oc3c(ccc(O)c3CN3CCN(CCO)CC3)C2=O)cc1,i,-0.2,-49,9.3,5,x,0.63
O=C(COc1ncnc2ccccc12)N1CCN(S(=O)(=O)c2ccccc2)CC1,x,2.9,1.8,-0.6,-2,x,0.73
O=C(NCCN1CCN(C(=O)c2ccc(F)cc2)CC1)c1ccc(F)cc1,i,-1.5,-0.7,6.0,-8,-2,0.72
O=C(CSc1nnc(COc2ccccc2)n1Cc1ccco1)NCc1ccco1,x,-6.1,0.7,-9.7,7,45,0.68
Cn1c(Cn2c3ccccc3c3ccccc32)n[nH]c1=S,i,-3.5,-0.3,1.8,-2,25,0.68
O=C(CSc1nc2ccccc2c(=O)[nH]1)Nc1nc(-c2ccc(Br)cc2)cs1,i,6.1,-1.2,-52,-5,-3,0.7
CCCCCCn1c(SCCC)nc2c1c(=O)[nH]c(=O)n2C,x,-7.9,4.5,-2.9,-7,-1,0.8
O=C(NNC(=O)C1CC1)c1ccc(F)cc1F,i,-4.8,0.9,-1.6,-4,4,0.68
Cc1ccc(OCC(O)CNC2CCCC2)cc1C (centres undefined),i,1.4,3.8,-2.8,-14,-2,0.69
CC(/C=C1\SC(=S)N(NC(=O)c2ccncc2)C1=O)=C\c1ccccc1,i,-8.9,10,1.3,-2,24,0.68
Cc1ccc(CN(C)C(=O)c2ccc3c(c2)NC(=O)CS3)o1,i,-2.2,0.1,2.2,-3,-13,0.66
CC(=O)c1ccc(-n2c(CCC(=O)O)ccc2-c2cccs2)cc1,i,-2.6,7.0,-1.8,-1,42,0.65
CCCOC(=O)c1ccc(Oc2c(-c3ccc(O)cc3O)n[nH]c2C)cc1,x,-0.6,3.4,-2.3,13,48,0.71
CC(C)(C)OC(=O)N(CCc1ccccc1)Cc1ccccc1OCc1ccc(NC(=O)C2CCC2)cc1,i,x,x,3.6,6,x,x
CC1(C)NC(=O)N(c2ccc([N+](=O)[O-])c(C(F)(F)F)c2)C1=O,i,0.0,-0.3,1.5,-4,-8,0.66
Cc1cc(NC(=O)CN2CCC(C)CC2)no1,x,-1.0,3.2,-0.5,2,2,0.68
COCc1nc2c([nH]1)c(=O)n(C)c(=O)n2CC(C)C,i,-2.0,-0.2,1.2,5,-15,0.68
CCCCN(CC)CCNC(=O)c1cc2c(=O)n(CC)c3ccccc3c2s1,i,-0.2,-258,0.5,9,-8,0.66
COc1ccccc1CNC(=O)CSC1=NCCS1,i,3.1,8.0,-0.1,6,99*,0.69
CN1CCN(C(=O)CN(Cc2ccc(Cl)cc2)S(C)(=O)=O)CC1,x,-2.6,4.2,-0.4,-1,-10,0.77

# Complete entries, quoted from the list:
# `Cc1cc(NC(=O)CN2CCC(C)CC2)no1` as listed: FGF22 binding: x; LANA-H2B inh: -1.0; UCH37 DUB inh: 3.2; HNF4A DNA FP: -0.5; Beta2AR agonist: 2; ALR inh: 2; E coli growth: 0.68
# `O=C(CSc1nnc(COc2ccccc2)n1Cc1ccco1)NCc1ccco1` as listed: FGF22 binding: x; LANA-H2B inh: -6.1; UCH37 DUB inh: 0.7; HNF4A DNA FP: -9.7; Beta2AR agonist: 7; ALR inh: 45; E coli growth: 0.68
